# Rango dissoc inh = qHTS Assay for Inhibitors of RanGTP induced Rango (Ran-regulated importin-beta cargo) - Importin beta complex dissociation | Snurportin-1 (Homo sapiens) + GTP-binding nuclear protein Ran (Homo sapiens) + Importin … | Biochemical FRET Rango-importin beta, RanGTP-induced dissociation | Potency, µM (top dose mostly 46.1 µM), for inactives: at the highest dose activity change, negative = inhibition | actives 0.071% (n = 340,000) | AID 540253, 2011; active means falling FRET ratio curve, often poorly fitted, with flat reads before Ran was added; inconclusive means other falling curves, or compound fluorescence or quenching; inactive means flat or rising ratio curve;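 further: potency means the concentration at half of the fitted maximal effect; % of control where 0% means no effect; nearly all actives have a fitted effect of over 45% in size; -100% = wells without RanGTP and RCC1; the record marks most hits as doubtful in a second field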
#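 Rango/importin beta premix (0.1/0.25 uM final), PBS + 1 mM DTT + 0.02% Tween-20 + 0.1% BSA; cpd 5 min RT; FRET pre-read; + RanGTP-RCC1 (0.6 uM Ran, 2 mM GTP, 0.2 uM RCC1); 45 min RT; FRET post-read, ex 430, em 486/530 nm.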
# GLA inh pH 4.5 = qHTS Assay for Inhibitors of Human alpha-Galactosidase at pH 4.5; purified enzyme, 4-MU-alpha-Gal fluorescence, pH 4.5; 230,000 tested, under 10 active; AID 1467, 2008; activity change, negative = inhibition, % at 105 µM; inconclusive = small, poorly fitted or top-dose-only inhibition, or a rising curve; inactive = flat fitted curve, though single readings scatter; no compound was filed as active;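 further: 0% = full activity with enzyme and -100% = basal without enzyme; dose as in the result columns while the protocol names 77 µM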
# miR-21 FLuc = qHTS Assay for Modulators of miRNAs and/orActivators of miR-21 | 340,000 tested, under 10 active | HeLa miR-21 FLuc reporter, luciferase, 48 h | Potency, µM (titrated, usually from 38.3 µM), for the others: at the top dose reporter change, positive = more light | AID 2288, 2010; active = well fitted rising curve with a large enough effect; inconclusive = small, poorly fitted or top-dose-only effect; inactive = no such curve, though single readings can be large or run the other way;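 further: % of control where 0% means no effect; miR-21 action dims this reporter so a rising signal means less miR-21 action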
#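 HeLa cells stably expressing CMV-driven firefly luciferase with a downstream miR-21 binding sequence, endogenously expressing miR-21, were treated with titrations (up to about 40uM final) for 48 hours at 37 degree Celsius. Luciferase luminescence was read after lysis.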
# Rango-impB inh = qHTS Assay for Inhibitors of Rango (Ran-regulated importin-beta cargo) - Importin beta complex formation | actives 0.031% (n = 340,000) | Potency, µM (titrated, usually from 92.2 µM), for the others: at the top dose inhibition of complex formation | Rango CFP/YFP FRET sensor + importin beta, 45 min | Importin subunit beta-1 (Homo sapiens), Q14974 | AID 540263, 2011; active = rising FRET ratio curve, often small or poorly fitted; inconclusive = mostly compound fluorescence or quenching in the first reads; inactive = flat curves in all reads;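 further: potency means the concentration at half of the fitted maximal effect; 0% = DMSO wells and 100% = buffer wells lacking importin beta; nearly all actives have a fitted effect of over 15% in size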
# Target sequence (Q14974 whole entry, looked up): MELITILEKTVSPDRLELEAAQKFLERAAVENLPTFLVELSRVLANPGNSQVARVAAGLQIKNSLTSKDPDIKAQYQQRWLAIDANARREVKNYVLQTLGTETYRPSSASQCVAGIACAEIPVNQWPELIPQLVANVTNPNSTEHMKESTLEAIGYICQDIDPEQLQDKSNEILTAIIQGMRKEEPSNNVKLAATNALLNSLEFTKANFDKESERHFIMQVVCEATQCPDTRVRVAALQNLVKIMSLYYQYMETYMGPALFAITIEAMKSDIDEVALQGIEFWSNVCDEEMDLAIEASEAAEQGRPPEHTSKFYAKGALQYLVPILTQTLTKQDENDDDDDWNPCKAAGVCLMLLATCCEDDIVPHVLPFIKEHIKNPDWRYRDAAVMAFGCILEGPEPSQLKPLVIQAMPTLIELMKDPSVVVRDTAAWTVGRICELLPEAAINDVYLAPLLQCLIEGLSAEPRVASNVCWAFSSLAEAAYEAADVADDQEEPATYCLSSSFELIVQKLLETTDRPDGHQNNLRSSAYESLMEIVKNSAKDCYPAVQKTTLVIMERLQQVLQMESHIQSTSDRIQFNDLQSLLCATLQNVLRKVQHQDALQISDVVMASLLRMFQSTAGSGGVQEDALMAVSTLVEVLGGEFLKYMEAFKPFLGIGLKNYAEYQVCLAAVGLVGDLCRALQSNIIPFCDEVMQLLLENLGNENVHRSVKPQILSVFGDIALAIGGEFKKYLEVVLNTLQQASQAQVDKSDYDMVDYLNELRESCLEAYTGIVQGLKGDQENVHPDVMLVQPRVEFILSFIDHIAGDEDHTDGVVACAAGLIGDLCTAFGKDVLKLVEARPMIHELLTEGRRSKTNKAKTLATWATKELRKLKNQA
#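 FRET biosensor Rango (snurportin 1 IBB between N-terminal EYFP and C-terminal Cerulean), 50 nM in PBS/1 mM DTT/0.02% Tween-20/0.1% BSA, preincubated 5 min RT with compound; 0.125 microM importin beta added, 45 min RT, CFP/YFP FRET ratio read.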
# The depositor's hits bear a star; ? = inconclusive; . = not tested or not shown; & = joins results of further samples. An excerpt. The share of hits here may be higher or lower than overall.
SMILES,Rango dissoc inh,GLA inh pH 4.5,miR-21 FLuc,Rango-impB inh
Cc1ccc(Nc2nc(Cl)nc(NC3CCCCC3)n2)cc1,-1%,.,-7%,4.4%
O=C(O)c1ccccc1Nc1ccnc(Cl)n1,7%,1,-28%,-4.5%
CC1(C)CNC(=O)c2sc(N3CCOCC3)nc2C1,0%,0,-10%,-3.7%
Nc1nc(=O)c2ccccc2s1,-2%,.,.,14%
COC(=O)C1=C(C(=O)OC)SC(=C2C(=S)C(C)(C)N(C(=O)C(C)C)c3ccccc32)S1,12%,-13,0%,1.0%
Cc1cc2c(c(SCC(=O)NCc3ccc(Cl)cc3)n1)C(=O)OC2,-3%,2,3%,2.7%
CC(NC(=O)CSc1n[nH]c(=O)[nH]c1=O)C1CC2CCC1C2 (stereo not given),-12%,1,-2%,-0.2%
CCN(c1ccccc1)S(=O)(=O)c1ccc(NC(=S)NC(=O)c2ccc(Br)o2)cc1,0%,0,-4%,-1.9%
COC(=O)c1ccccc1NC(=S)NC(=O)c1ccccc1C,-6%,-10,-8%,-1.5%
Cc1ccnc(SCCn2c(N(C)Cc3ccccc3)nc3c2c(=O)n(C)c(=O)n3C)n1,11%,.,.,4.6%
CCCN1C(=O)CN(C2CCCCCC2)C(=O)C1c1ccc(C)cc1 (stereo not given),8%,3,0%,-0.3%
COc1ccc(NC(=S)NNc2ccc(C(=O)O)cc2)cc1,0%,.,-50%,2.6%

# Arranged by count of non-hydrogen atoms (smallest number first): 3 of the compounds above.
SMILES,Rango dissoc inh,GLA inh pH 4.5,miR-21 FLuc,Rango-impB inh
O=C(O)c1ccccc1Nc1ccnc(Cl)n1,7%,1,-28%,-4.5%
COC(=O)c1ccccc1NC(=S)NC(=O)c1ccccc1C,-6%,-10,-8%,-1.5%
CCN(c1ccccc1)S(=O)(=O)c1ccc(NC(=S)NC(=O)c2ccc(Br)o2)cc1,0%,0,-4%,-1.9%

# Following part:
SMILES,Rango dissoc inh,GLA inh pH 4.5,miR-21 FLuc,Rango-impB inh
Cc1cccc(N2CCN(C(=O)c3ccc(N4CCCC4=O)cc3)CC2C)c1 (stereo not given),2%,5,11%,1.9%
CCOC(=O)c1cccc(NC(=O)N2CCOCC2)c1,0%,-14,-6%,3.9%
O=C(CSc1nc(O)c(Cc2ccccc2)c(=O)[nH]1)Nc1ccccc1,-4%,3,-2%,?
NC(=O)c1nsc(C(=O)N(c2cccc(F)c2)C(C(=O)NC2CCCC2)c2ccco2)c1N (stereo not given),-1%,.,-26%,-3.3%
COC(=O)C(=CC(=CN(C)C)C=C(C(=O)OC)C(=O)OC)C(=O)OC,?,-2,1%,?
O=C(CNC(=O)c1ccccc1F)NCCc1ccc(Cl)cc1Cl,0%,.,-1%,-1.7%
O=C(NC(=S)NCC1CCCO1)c1ccco1 (stereo not given),-2%,4,-1%,0.6%
C=CCOc1ccc2ccccc2c1CNn1c(C)n[nH]c1=S,-8%,.,-20%,2.7%
CC(c1ccccc1)n1cc(C(=O)NCC2COc3ccccc3O2)nn1 (stereo not given),0%,-5,-1%,-3.0%
O=C(NCCCn1ccnc1)/C(=C/c1ccco1)NC(=O)c1ccco1,-4%,3,-1%,0.9%
COCCNC(=O)C1CCN(C(=O)C2CC(=O)N(c3ccc(C)cc3)C2)CC1 (stereo not given),10%,.,7%,2.7%
Cc1ccc(NC2=CC(=O)CC(c3ccccc3)C2)cc1 (stereo not given),0%,-3,12%,?

# In a second layout: 2 of the compounds above
# Each structure is followed by: Rango dissoc inh, GLA inh pH 4.5, miR-21 FLuc, Rango-impB inh
Cc1cccc(N2CCN(C(=O)c3ccc(N4CCCC4=O)cc3)CC2C)c1 (stereo not given)
→ 2%, 5, 11%, 1.9%
CCOC(=O)c1cccc(NC(=O)N2CCOCC2)c1
→ 0%, -14, -6%, 3.9%

# Continuation:
SMILES,Rango dissoc inh,GLA inh pH 4.5,miR-21 FLuc,Rango-impB inh
COc1ccc(OC)c(Cc2cnc3nc(N)nc(N)c3c2C)c1,17%,.,.,1.0%
CCN(C[C@H]1N[C@@](Cc2ccccc2)(C(=O)OC)[C@H]2C(=O)N(C)C(=O)[C@@H]12)C(=O)c1ccccc1,-3%,.,.,-0.2%
COc1ccc(C(CNC(=O)CSc2ccc(Br)cc2)N2CCOCC2)cc1 (stereo not given),2%,.,.,0.1%
CC1CCCCN1C(=O)CCC(=O)Nc1nnc(C2CCCCC2)s1 (stereo not given),-18%,.,-8%,?
CC(C)(C)C1CCC(=NNc2nc3ccccc3[nH]2)CC1 (stereo not given),-14%,-2,-17%,-0.8%
CCOc1ccc(CN2CCNC(=O)C2CC(=O)OC)cc1 (stereo not given),-10%,-3,1%,-1.3%
NNC(=O)CNc1ccccc1Cl,2%,2,0%,1.8%
COc1ccc(NC(=O)Cn2nnc(C(=O)Nc3ccc(F)c(Cl)c3)c2N)cc1,-15%,.,-16%,2.5%
COc1ccccc1CNC(=O)Cn1cnc2ccccc2c1=O,2%,-3,-11%,0.4%
CC(=O)c1ccc([N+](=O)[O-])c(CS(=O)(=O)c2ccc(Cl)cc2)c1,-8%,.,-1%,0.0%
COc1cc2c(cc1OC)-c1cc(Nc3cccc(C)c3)nc(=O)n1CC2,-20%,.,-26%,-3.4%
CCCCNC(=S)N1CCn2cccc2C1c1ccc(F)cc1 (stereo not given),1%,-2,14%,1.5%
O=C(NCC1(N2CCOCC2)CCCCC1)c1cccc(S(=O)(=O)Nc2ccc(F)cc2)c1,3%,.,.,0.1%
CCOC(=O)C1(C)Oc2cccnc2NC1=O (stereo not given),-17%,4,0%,8.9%
O=C(COC(=O)CCc1ccc(S(=O)(=O)N2CCOCC2)cc1)NCc1ccccc1Cl,-6%,2,-2%,1.0%
O=C(Nc1cc(S(=O)(=O)N2CCOCC2)ccc1N1CCOCC1)c1ccccc1Cl,1%,.,.,-0.3%
COc1ccc(-c2nc(-c3ccncc3)no2)cc1OC,-9%,7,-66%,-4.5%
CC(=O)Nc1ccc(NC(=O)C(Cc2ccccc2)NC(=O)C2CCC(C)CC2)cc1 (stereo not given),7%,4,-9%,1.0%
COCCSc1ccccc1C(=O)Nc1ccc(S(=O)(=O)N2CCOCC2)cc1,7%,.,-3%,0.9%
CC(NC(=O)COC(=O)c1cc(=O)c2ccccc2o1)c1ccccc1 (stereo not given),3%,.,.,3.7%
O=[N+]([O-])c1cc2oc3c(c2c(C=NCc2ccncc2)c1O)CCCC3,11%,-7,-5%,4.4%
COCc1cc(C)nc2sc(C(=O)Nc3ccccc3OC)c(N)c12,?,.,-30%,?
N#C/C(=C\c1ccc(-c2cccc([N+](=O)[O-])c2)o1)C(=O)Nc1nc(-c2cccs2)cs1,2%,-2,-7%,?
COc1ccc(C(=O)NCCS(=O)(=O)NC(C)c2ccccc2)cc1 (stereo not given),11%,.,.,-0.5%
COc1ccc(Cl)cc1-c1nc(SCC(=O)NCC2CCCO2)n[nH]1 (stereo not given),-2%,.,.,3.2%
Cc1nc2ccc(S(=O)(=O)Nc3ccc(-c4nc5cccnc5s4)cc3)cc2s1,?,?,-55%,?
O=C(CCC(=O)c1cccs1)NCC(c1ccc(F)cc1)N1CCOCC1 (stereo not given),-8%,.,.,-8.6%
COc1ccc(/C=N/NC(=O)c2c(C)nc3ccc(Br)cn23)cc1OC,-5%,0,6%,2.1%
O=C(N1CCOCC1)N1CCN(Cc2ccccc2)CC1,1%,8,1%,1.1%
N/C(=N/O)c1nc(N2CCCCC2)nc(N2CCCCC2)n1,1%,3,-1%,7.6%
Cc1ccc(C2=N/C(=C\c3cccnc3)C(=O)O2)cc1,2%,0,-6%,2.7%
COC(=O)N/N=C/c1cc(Cl)c(OCc2ccc(F)cc2)c(OC)c1,12%,-4,-10%,-0.2%
Cc1occc1C(=O)NNC(=S)Nc1cccc([N+](=O)[O-])c1,10%,-2,-25%,-0.5%
Cc1ccc(C)c(S(=O)(=O)NC2CCS(=O)(=O)C2)c1 (stereo not given),3%,.,.,-0.1%
COC(=O)CCC(=O)OC1(C)C(=O)C2=COC(c3ccc(OC)cc3)=CC2=C(Br)C1=O (stereo not given),?,-18&-2,-4%,?
CCOC(=O)c1c(NC(=O)CSc2ncccn2)sc(C(=O)NC)c1C,-7%,.,.,-1.6%
N#Cc1ccc(NC(=S)NCCN2CCOCC2)cc1,-1%,0,-3%,-1.3%
C=CCN(c1ccccc1)S(=O)(=O)c1cccc(C(=O)NNC(=O)c2ccccc2O)c1,5%,.,.,1.7%
O=C(Cn1cnc2cc([N+](=O)[O-])ccc2c1=O)Nc1ccccc1-c1ccccc1,12%,2,0%,-3.4%
COC(=O)c1ccc(C(=O)OC)c(NC(=O)N2c3ccccc3Sc3ccccc32)c1,?,0,-10%,?
CN(C)S(=O)(=O)c1ccc(C(=O)Nc2ccccc2SCCC#N)cc1,-5%,-28,-1%,-0.3%
c1ccc(-n2ncc3c(NCCN4CCOCC4)ncnc32)cc1,-4%,-5,-30%,-0.1%
COc1ccc(NC(=O)CCc2nnc3ccc(N4CCC(C)CC4)nn23)cc1OC,20%,.,-4%,-2.7%
COc1ccccc1C1C=C(c2ccc(C)cc2)Nc2nnnn21 (stereo not given),?,-1,-3%,?
CCn1c(SCC(=O)c2c[nH]c3ccccc23)nc2cc(S(=O)(=O)N3CCOCC3)ccc21,-21%,-6,-11%,?
Cc1ccc(C2C(C(=O)c3cccs3)=C(O)C(=O)N2c2cccc(C)n2)cc1 (stereo not given),-15%,0,3%,0.4%
Cc1ccc(S(=O)(=O)N2CCSC2c2ccco2)cc1 (stereo not given),-10%,-6,-5%,-0.8%
O=C1CCCCC1CCc1ccncc1 (stereo not given),3%,.,.,-3.1%
O=C(c1c[nH]c2ccccc2c1=O)N1CCCCCC1,8%,-19,-5%,-1.5%
Oc1ccccc1C(=S)N1CCN(C(=S)c2ccccc2O)CC1,-17%,.,-1%,0.3%
O=C(c1ccccc1)N(Cc1ccc(F)cc1)Cc1nc2ccccc2c(=O)[nH]1,10%,8,4%,-3.4%
COC(=O)c1ccccc1NC(=O)COC(C)=O,-4%,-2,7%,?
O/N=C1\CC/C(=N\O)c2nn(-c3ccc(Cl)cc3Cl)nc21,3%,-3,-18%,-1.0%
CCOC(=O)CN1NC2(CCC(C(C)(C)C)CC2)NC1=S (stereo not given),-4%,6,-2%,-0.7%
Cc1cccc(OCCCn2c(=O)oc3ccc(C)cc32)c1,1%,-11,-23%,0.2%
CCN1CCN(c2ncnc3sc(C(=O)Nc4ccccc4F)c(C)c23)CC1,13%,-5,-34%,3.0%
Cc1cccc(C)c1NC(=O)CN(C)C(=O)Cc1cccc(C(F)(F)F)c1,1%,.,-3%,-1.6%
COc1cc(OC)cc(C(=O)NCc2ccc(-n3cccc3)cc2)c1,11%,-4,22%,0.2%
CC(=O)Nc1ccc(S(=O)(=O)N2CCN(c3cc4c(cc3[N+](=O)[O-])n(C)c(=O)n4C)CC2)cc1,-11%,10,17%,6.7%
COc1ccc(C(=O)N2CCN(S(=O)(=O)c3ccc(C)cc3C)CC2)cc1S(=O)(=O)N1CCOCC1,-6%,.,.,-2.8%

# Later entries.
SMILES,Rango dissoc inh,GLA inh pH 4.5,miR-21 FLuc,Rango-impB inh
COc1ccccc1CNC(=O)CN(Cc1ccc(Cl)cc1)S(C)(=O)=O,1%,-2,6%,-0.9%
Cc1nn(C)c(C)c1NC(=O)CCCSc1nc(-c2ccco2)cc(C(F)(F)F)n1,9%,-9,1%,-1.8%
COc1ccc(NC(=O)CSc2nnc(NC(=O)C3CCC3)s2)c(OC)c1,-32%,.,8%,8.0%
Cc1ccc(NC(=O)C(Cc2ccccc2)N2C(=O)C3C4CCC(C4)C3C2=O)cc1Cl (stereo not given),?,-5,17%,-3.5%
CCOC(=O)c1cn(Cc2ccc(C)cc2)c2cc(F)ccc2c1=O,-2%,.,1%,-1.9%
Cc1ccc(NC(=O)C/C(N)=N/OC(=O)Nc2cccc(C)c2)cc1,-3%,.,.,-4.2%

# High-throughput results as filed in PubChem BioAssay.
